Screens as filed in PubChem.
KCNQ2 block = KCNQ2 potassium channel inhibitors, primary screen, cell-based, CHO-K1, FluxOR thallium flux, B-score (AID 2156); 310,000 tested, 1.1% active; 20 min; hits give low values; only compounds with negative scores are shown here; some inactives read as strong as hits; B-score at 10 µM; Potassium voltage-gated channel subfamily KQT member 2 (Rattus norvegicus), O88943;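 active = fluorescence ratio B-score at most minus 3 library SDs, with starting brightness B-score within 2 library SDs, cut at about -5.5 in these data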
Target sequence (O88943 whole entry, looked up): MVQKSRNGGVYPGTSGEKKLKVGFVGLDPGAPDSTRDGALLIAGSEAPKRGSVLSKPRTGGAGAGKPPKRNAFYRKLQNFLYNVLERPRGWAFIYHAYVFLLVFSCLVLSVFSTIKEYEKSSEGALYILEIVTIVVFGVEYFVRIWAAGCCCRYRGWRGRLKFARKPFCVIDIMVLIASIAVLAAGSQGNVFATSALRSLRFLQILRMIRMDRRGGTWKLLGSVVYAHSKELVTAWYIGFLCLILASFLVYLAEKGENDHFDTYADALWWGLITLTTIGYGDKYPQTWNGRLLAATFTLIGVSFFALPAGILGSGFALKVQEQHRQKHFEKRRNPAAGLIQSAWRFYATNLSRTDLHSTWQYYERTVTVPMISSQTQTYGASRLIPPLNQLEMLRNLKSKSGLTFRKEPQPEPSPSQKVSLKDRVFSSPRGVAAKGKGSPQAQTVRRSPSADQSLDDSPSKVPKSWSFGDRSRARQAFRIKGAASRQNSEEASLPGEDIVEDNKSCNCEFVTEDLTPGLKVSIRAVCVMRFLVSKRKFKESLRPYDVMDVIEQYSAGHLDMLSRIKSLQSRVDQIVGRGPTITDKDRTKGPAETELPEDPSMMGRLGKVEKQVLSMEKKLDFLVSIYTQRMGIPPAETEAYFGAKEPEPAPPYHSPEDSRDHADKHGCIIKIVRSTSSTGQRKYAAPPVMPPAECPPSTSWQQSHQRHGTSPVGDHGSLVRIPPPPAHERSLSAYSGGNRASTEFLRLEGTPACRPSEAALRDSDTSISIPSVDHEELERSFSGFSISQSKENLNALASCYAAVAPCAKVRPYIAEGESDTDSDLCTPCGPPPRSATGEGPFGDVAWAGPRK
KCNQ2 block baseline = second read-out of KCNQ2 block, no call of its own (marks repeat the call); B-score; measured here: initial fluorescence intensity artifact check;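 brightness before thallium and not channel activity; 0 = typical well and far values either way flag optical interference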
The depositor's hits bear a star; i = inactive.

SMILES	KCNQ2 block	KCNQ2 block baseline
O=C(N/N=C/c1cccc(F)c1)c1c(O)c2c([nH]c1=O)CCCC2	i	-0.57
Oc1c(Br)cc(Br)cc1CNc1cnc2ccccc2c1	i	0.02
Brc1ccccc1OCCNCc1ccccc1	i	-2.2
CCOC(=O)c1[nH]c2ccccc2c1NC(=O)c1ccc(S(=O)(=O)N(C)C)cc1	i	0.08
Cc1c(NC(=O)c2cc3nc(-c4ccccc4)cc(C)n3n2)c(=O)n(-c2ccccc2)n1C	i	0.07
COc1ccccc1CCNC(=O)c1ccc(Br)s1	-6.3*	-0.21*
Cc1ccc(C)c(OCc2cc(C(=O)NC3CCN(Cc4ccccc4)CC3)no2)c1	i	-0.68
CC(OC1=CC(=O)CCC1)C(=O)c1ccccc1 (stereo not given)	i	-1
O=C(NCCCN1CCOCC1)c1ccccc1N1C(=O)[C@@H]2Cc3c([nH]c4ccccc34)C(c3ccc(F)cc3)N2C1=O (stereo not given in full)	-7.1*	0.38*
CN(C)c1oc(-c2ccc(OCc3ccccc3)cc2)nc1C#N	i	-1.6
N#CC12CCCCC1CC1CCCCC1(C#N)N2CCO (stereo not given)	i	-0.34
Cc1cc(C)cc(NC(=S)N(CCN2CCCCC2)Cc2ccco2)c1	i	-2.4
COc1ccc(Nc2nnc(C)c(=O)[nH]2)c(OC)c1	i	0.38
O=C(COc1ccccc1)NCC(c1ccco1)N1CCN(c2ccc(F)cc2)CC1 (stereo not given)	i	3.4
COc1ccc(-c2nc3ccccc3nc2-c2ccccc2)cc1	i	0.33
c1ccc(Nc2nc(-c3ccncc3)nc3ccccc23)cc1	i	-0.06
COc1ccc2c(CCNC(=O)/C=C/c3ccc(OC)c(OC)c3)c[nH]c2c1	i	-0.67
COc1ccc(NC(=S)NCc2ccc3c(c2)cc(C)n3C)cc1	i	-1.4
Cc1cc(C(=O)CCl)c(C)n1-c1c(C)n(C)n(-c2ccccc2)c1=O	i	2.1
CCC1CCCCN1CCCNC(=O)CN1C(=O)COc2ccc(S(=O)(=O)N3CCC(C)CC3)cc21 (stereo not given)	i	-1.2
Cc1ccc(CN2CCN(/N=C/c3cccn3C)CC2)c(C)c1	i	0.28
CCCCn1c(N)c(N(CC(C)C)C(=O)c2oc3c(Cl)cccc3c2C)c(=O)[nH]c1=O	i	-1.3
CCCn1c(N)c(C(c2ccc(C(=O)OC)cc2)N2CCN(c3ccccc3)CC2)c(=O)[nH]c1=O (stereo not given)	i	0.5
Clc1ccc(Oc2nc(N3CCOCC3)nc(N3CCOCC3)n2)c(C2CCCCC2)c1	i	-0.74
CCn1c2ccc(Cl)cc2c2nc3ccccc3nc21	i	-1.1
SMILES	KCNQ2 block	KCNQ2 block baseline
Cc1ccc(NC2CCCN(C(=O)c3ccccc3-c3ncc[nH]3)C2)cc1C (stereo not given)	i	-0.36
NC(=O)NCc1ccc(F)cc1	i	2
CC1(OC(=O)c2ccco2)C(=O)C=C2C=C(C3CC3)OC=C2C1=O (stereo not given)	i	1.4
COc1ccccc1C1=NNC(=Nc2cccc(S(=O)(=O)N(C)C)c2)SC1	i	1.8
CCC(=O)N1CCC2(CC1)Oc1ccc(Cl)cc1C(=O)C21CC(c2ccccc2)=NO1 (stereo not given)	i	-1.2
O=C(CSc1ccc2nc(-c3ccccc3)cn2n1)NCC1CCCO1 (stereo not given)	i	-0.1
COc1cccc(NC(=O)COC(=O)C2CCN(S(=O)(=O)c3cccs3)CC2)c1	i	-0.17
CCOC(=O)c1ccc(S(=O)(=O)NC2CCCCCCC2)n1C	i	0.32
N#CCCNc1ccc(OCCC#N)cc1	i	0.12
Cc1ccc(-n2nnnc2SCC(=O)N2CCc3ccccc3C2)cc1	i	0.62
CCOC(=O)CN1C(=O)CSc2ccc(S(=O)(=O)N3CCOCC3)cc21	i	0.83
CCOC(=O)N1CCN(C(=O)C2CCC(=O)N2C(C)C)CC1 (stereo not given)	i	0.25
O=C(NC1(C(F)(F)F)NC(=O)N(Cc2ccccc2)C1=O)c1cccs1 (stereo not given)	i	0.55
CCc1nc(CN2CCN(c3cc(C(F)(F)F)ccn3)CC2)c(C)[nH]1	i	0.4
COc1ccc(S(=O)(=O)N2CCC(C(=O)NCC(c3cccs3)N(C)C)CC2)cc1 (stereo not given)	i	1.8
O=C(O)c1ccccc1C(=O)NCC(O)COc1ccc(Cl)cc1 (stereo not given)	i	1.4
CC1(C)Cc2c(c(N3CCOCC3)nc3sc(C(=O)Nc4cccc(Cl)c4)c(N)c23)CO1	i	0.8
CCc1ccc(-c2nc(CN3CCC(C(=O)NCc4ccccc4OC)CC3)c(C)o2)cc1	i	0.39
CC(=O)c1sc(NC(=O)c2cnc(Cl)c(Cl)c2)nc1C	i	-2.6
Cc1cc(C(=O)Nc2ccc(S(=O)(=O)Nc3nccs3)cc2)c(C)o1	i	0.06
COc1cccc(CNC(=O)CSc2cc(=O)n(C)c3ccccc23)c1	i	1.2
CC(C)[C@H](NC(=O)N1CCn2c1nc1ccccc12)C(=O)NCc1ccccc1Cl	-8.1*	0.08*
COc1ccc(C(c2sc3nc(C)nn3c2O)N2CCN(Cc3ccccc3)CC2)cc1OC (stereo not given)	i	0.02
CC(NC(=O)c1ccc2nc[nH]c2c1)c1ccccc1 (stereo not given)	i	1.9
Cc1cc(C)n(CCC(=O)N/N=C/c2ccc(Br)c([N+](=O)[O-])c2)n1	i	-0.04
SMILES	KCNQ2 block	KCNQ2 block baseline
COc1ccc(CC(=O)NNC(=S)NC(=O)c2cccnc2)cc1	i	-2.1
O=C(O)CNc1ncccc1[N+](=O)[O-]	i	1.3
COc1ccc(CN(C)C(C)C(=O)Nc2cccc3ccccc23)cc1 (stereo not given)	i	0.47
Cc1ccc(CNC(=O)C2CCCN(S(=O)(=O)N3CC(C)CC(C)C3)C2)cc1 (stereo not given)	i	0.34
COc1ccc(N(CC(=O)NCCC2=CCCCC2)S(C)(=O)=O)cc1OC	i	0.1
CN(C)C=Nc1ccc2nn(-c3ccccc3)nc2c1	i	1
O=C(CCNS(=O)(=O)c1cccc2nsnc12)NCc1ccccc1Cl	i	1.8
O=C(NCc1n[nH]c(=S)n1-c1ccc(F)cc1)c1ccco1	i	-0.44
Cc1ccc(C2=N/C(=C\c3ccc(OS(=O)(=O)c4ccc(C)cc4)cc3)C(=O)O2)cc1	-7.2*	-0.14*
O=C(Nc1ccc(N2CCCC2)cc1)c1ccc(Cl)cc1Cl	i	1.1
O=C(CC1C(=O)NCCN1Cc1ccc(Cl)c(F)c1)NC1CCCCC1 (stereo not given)	i	-0.35
O=C(CN1C(=O)CC(c2ccco2)Sc2ccccc21)Nc1ccccc1F (stereo not given)	i	-0.04
COc1cccc(C(=O)N(Cc2nc(-c3ccc(C)cc3)no2)C(C)C)c1	i	-1.4
Cc1ccc(N2C(=O)C3CCCN3C2=S)cc1 (stereo not given)	i	-0.25
COc1ccc(Nc2nnc(SCC(=O)c3cc4ccccc4o3)s2)cc1	i	0.68
Cc1cccc(Nc2nnc(-c3ccc(N4CCOCC4)c([N+](=O)[O-])c3)c3ccccc23)c1	i	-0.37
O=C(N/N=C/c1ccccn1)c1cccc([N+](=O)[O-])c1	i	-0.02
O=C(COc1ccc2c3c(c(=O)oc2c1)CCC3)Nc1ccccn1	i	0.69
COc1ccc2nc(NC(=O)c3ccc(Br)s3)sc2c1	i	2.8
COc1ccccc1N(CC(=O)NCCSc1ccccc1)S(=O)(=O)c1ccccc1	i	-2.5
COC(=O)c1scc(C)c1N/N=C(\C)c1ccc(F)cc1	i	-0.04
FC(F)Oc1cccc(NC(=S)N2CCN(c3ccccn3)CC2)c1	i	-1.3
CCc1nnc(NC(=O)CSc2nnc(CNc3ccc(C)cc3)n2C)s1	i	-0.36
Nc1c(C(=O)Nc2ccccc2)sc2nc3c(c(-c4ccco4)c12)CCCC3	i	0.68
Cc1nn(C)c(C)c1/C=N/NC(=O)CCn1nc(C)c([N+](=O)[O-])c1C	i	-0.88
SMILES	KCNQ2 block	KCNQ2 block baseline
Cc1cc(Cl)nc2ccc(Cc3ccc4nc(Cl)cc(C)c4c3)cc12	i	-0.05
CS(=O)(=O)Nc1ccc2c3c(cccc13)CC2	i	-0.34
Cc1cc(Nc2ccc3c(c2)OCCO3)c2ccccc2n1	i	0.06
CCOC(=O)CN=C1CC(C)(C)CC2=C1Sc1ncnc(N(C)C)c1N2	i	2.1
OCc1cc(-c2ccccn2)no1	i	0.7
COc1ccccc1C(=O)NNC(=O)CCC(=O)NCc1ccccc1	i	-0.03
Cc1ccc(-n2nc3c(=O)n(C(C)C(=O)NCc4ccc5c(c4)OCO5)nc(C)c3c2C)cc1 (stereo not given)	i	0.04
CS(=O)(=O)N1N=C(c2cccs2)CC1c1ccc(F)cc1 (stereo not given)	i	0.9
O=C(Nc1cc(Cl)cc(Cl)c1)C(NCC1CCCO1)c1ccccc1 (stereo not given)	-7.8*	0.94*
Cc1ccnc(SCC(=O)NC2CC2)n1	i	-0.09
Cn1cccc1C(=S)N1CCOCC1	i	-1
Cc1nnc(NS(=O)(=O)c2ccc(Br)cc2)s1	i	1
Cc1cc(=O)[nH]c(Nc2c(C)n(C)n(-c3ccccc3)c2=O)n1	i	0.05
Cc1cccc(N2CCN(S(=O)(=O)c3ccc4c(c3)n(C)c(=O)c(=O)n4C)CC2C)c1 (stereo not given)	i	0.34
COC(=O)c1sccc1N/N=C/c1ccc(OC)c(OC)c1OC	i	2.1
Cc1ccc(NC(=O)NC2=N/C(=C(/C#N)C(=O)N3CCCC3)c3ccccc32)cc1	-7*	1.6*
CC(C)(C)c1ccc(CSc2nnc(-c3ccccn3)n2Cc2ccco2)cc1	-5.6*	0.01*
CC1=C(C(=O)Nc2cc(C(=O)N3CCN(c4cccc(C)c4C)CC3)ccc2C)SCCO1	i	2.2
O=C1c2nccnc2C(=O)N1c1ccc(F)cc1	i	-0.63
CCCC(c1nnnn1CC(=O)OCC)N(Cc1cc2c(C)cc(C)cc2[nH]c1=O)C1CCCC1 (stereo not given)	i	-0.06
Cc1nn(CC(=O)Nc2nnc(CC(=O)N3CCCC3)s2)c(=O)c2ccccc12	i	1.9
O=C(N/N=C\c1ccc(Sc2ccccn2)o1)c1cccc(Br)c1	i	-0.01
CC1CCCC(NC(=O)c2ccc3c(c2)NC(=O)CS3)C1C (stereo not given)	i	0.01
O=C1C=C(NC(=O)Nc2ccc(Cl)c(Cl)c2)CCC1	i	0.46
COc1cccc(CN(C)C(=O)Nc2cccc(C(F)(F)F)c2)c1OC	i	-0.22

Rewritten bar-delimited: part of the list above.
mol | KCNQ2 block | KCNQ2 block baseline
COc1ccccc1N(CC(=O)NCCSc1ccccc1)S(=O)(=O)c1ccccc1 | i | -2.5
COC(=O)c1scc(C)c1N/N=C(\C)c1ccc(F)cc1 | i | -0.04
FC(F)Oc1cccc(NC(=S)N2CCN(c3ccccn3)CC2)c1 | i | -1.3
CCc1nnc(NC(=O)CSc2nnc(CNc3ccc(C)cc3)n2C)s1 | i | -0.36
Nc1c(C(=O)Nc2ccccc2)sc2nc3c(c(-c4ccco4)c12)CCCC3 | i | 0.68
Cc1nn(C)c(C)c1/C=N/NC(=O)CCn1nc(C)c([N+](=O)[O-])c1C | i | -0.88
Cc1cc(Cl)nc2ccc(Cc3ccc4nc(Cl)cc(C)c4c3)cc12 | i | -0.05

The results go on.
SMILES	KCNQ2 block	KCNQ2 block baseline
O=C(Nc1ccc(-n2cnnn2)cc1)C1CCCCC1	i	-1.7
C=CCn1c(NCc2cc(Cl)ccc2O)nc2ccccc21	i	-0.26
Cc1ccc(-c2nnc(NC(=O)CCS(=O)(=O)c3ccc(F)cc3)o2)c(C)c1	i	-0.77
CCOc1ccc(-c2noc(CCC(=O)NC3CCCCC3)n2)cc1OC	i	0.45
O=C1c2cccnc2C(=O)N1Cc1ccc(S(=O)(=O)N2CCN(c3ccccc3)CC2)cc1	i	-0.01
CCn1nc(C)c(Br)c1C(=O)Sc1ccccc1Cl	i	0.03
CC(C)NC(=O)NC(=O)COC(=O)Cc1c(F)cccc1Cl	i	-0.1
COCCN(C(=O)/C=C/c1ccccc1)c1c(N)n(Cc2ccccc2)c(=O)[nH]c1=O	i	-0.13
CCC1=C/C(=C/c2sc3ccccc3[n+]2CC)CC(C)(C)C1	i	-0.01
CC(=O)C1=C(O)C(=O)N(c2cccc(Br)c2)C1c1ccccc1Cl (stereo not given)	i	-0.2
COc1cc2c(cc1OC)[C@H](C)N(C(=O)COc1ccccc1)CC2	i	-0.11
Cc1cccc(C)c1NC(=O)Cn1c(=O)c2cccn2c2ccccc21	i	-1.1
Cc1ccccc1CC(=O)NC1CCN(C)CC1	i	1.9
CCOC(=O)c1cnc2c(C)cc(C)cc2c1NCCCN1CCOCC1	i	0.84
O=C1CN2NC(=S)N(c3ccc(Cl)cc3)C2=CN1c1ccc(Cl)cc1	i	-2.8
COc1ccc(C(=O)NCc2nnc(SCC(=O)Nc3cc(OC)ccc3OC)o2)cc1	i	0.06
CCCn1c(NCc2cccc(OC)c2OC)nc2ccccc21	-5.9*	-0.78*
Cc1ccc(NC(=O)CN2CCC(NC(=O)c3cccc(F)c3)CC2)cc1C	i	0.12
N#Cc1c(-c2ccncc2)c2c([nH]c1=S)CCCC2	i	0.06
CCC1CCCCN1Cc1ccc(N)cc1 (stereo not given)	i	0.42

Random excerpt: 6 entries already listed.
SMILES	KCNQ2 block	KCNQ2 block baseline
CCC1=C/C(=C/c2sc3ccccc3[n+]2CC)CC(C)(C)C1	i	-0.01
COc1cc2c(cc1OC)[C@H](C)N(C(=O)COc1ccccc1)CC2	i	-0.11
CCCn1c(NCc2cccc(OC)c2OC)nc2ccccc21	-5.9*	-0.78*
CCOC(=O)c1cnc2c(C)cc(C)cc2c1NCCCN1CCOCC1	i	0.84
O=C(Nc1ccc(-n2cnnn2)cc1)C1CCCCC1	i	-1.7
CCOc1ccc(-c2noc(CCC(=O)NC3CCCCC3)n2)cc1OC	i	0.45

The list is partial, so the mix of outcomes need not match the whole.
